Source: PubChem BioAssay (several laboratories)
GALR2 ag = agonists of human galanin receptor 2 (GALR2). O43603. GALR2-expressing cells, agonist activation read-out. activation, %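 (tested at 5 µM)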. 0.48% of 140,000 active;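 active = above mean plus 3 SD of all compounds, about 5% in these data, not always enough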;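 also: 0% = vehicle buffer wells and 100% = reference agonist at full effect; tested in CHO reporter cells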
Target sequence (O43603 whole entry, looked up): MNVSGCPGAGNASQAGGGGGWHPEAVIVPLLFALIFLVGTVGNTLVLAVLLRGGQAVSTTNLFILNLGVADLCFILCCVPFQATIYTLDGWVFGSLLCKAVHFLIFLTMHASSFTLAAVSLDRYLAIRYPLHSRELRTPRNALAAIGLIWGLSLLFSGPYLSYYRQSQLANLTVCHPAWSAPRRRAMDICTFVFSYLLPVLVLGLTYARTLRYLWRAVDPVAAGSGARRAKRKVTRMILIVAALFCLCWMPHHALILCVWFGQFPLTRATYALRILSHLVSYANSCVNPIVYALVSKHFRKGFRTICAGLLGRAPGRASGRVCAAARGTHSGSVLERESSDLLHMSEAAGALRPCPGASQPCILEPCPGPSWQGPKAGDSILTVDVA
INS promoter inh = TRM-6 insulin promoter activity inhibition. TRM-6 cells (human fetal islet line), insulin promoter-eGFP reporter, imaging; reporter expression induced with tamoxifen. inhibition, % at 2 µM. 0.9% of 130,000 active. AID 1273;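 active = inhibition above the mean plus 3 SD, with well images judged a real hit on visual review, cut at about 60% in these data, passing the limit was not always enough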
RGS16-Gao HTS = modulates binding between human RGS16 and Galphao | binding response (% of control), % at 10 µM | bead-based flow cytometry RGS16-Galphao binding, fluorescence; actives lie on both sides | O15492+P09471 | 0.38% of 220,000 active;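 active = below 25% or above 175%, edge rows of some plates excepted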;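 also: Galphao activated by GDP with aluminum fluoride before binding; 100% = wells without compound and 0% = beads without RGS; some results beyond the cut were filed as inactive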
Target sequence (O15492 whole entry, looked up): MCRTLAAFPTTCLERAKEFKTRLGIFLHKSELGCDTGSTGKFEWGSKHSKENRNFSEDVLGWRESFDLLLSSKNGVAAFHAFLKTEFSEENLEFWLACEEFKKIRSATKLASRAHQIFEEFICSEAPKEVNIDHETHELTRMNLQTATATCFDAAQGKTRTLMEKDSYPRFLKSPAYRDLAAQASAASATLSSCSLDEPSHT
Target sequence (P09471 whole entry, looked up): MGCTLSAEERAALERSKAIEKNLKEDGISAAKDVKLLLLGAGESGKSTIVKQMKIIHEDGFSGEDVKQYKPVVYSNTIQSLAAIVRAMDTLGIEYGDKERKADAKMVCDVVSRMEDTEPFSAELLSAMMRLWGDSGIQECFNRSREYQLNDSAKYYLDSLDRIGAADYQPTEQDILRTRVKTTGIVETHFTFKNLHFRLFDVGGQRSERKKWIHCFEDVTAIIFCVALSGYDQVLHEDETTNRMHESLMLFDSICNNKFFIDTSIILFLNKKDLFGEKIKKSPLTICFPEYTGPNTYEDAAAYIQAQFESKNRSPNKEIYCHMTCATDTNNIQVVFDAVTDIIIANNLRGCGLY
HSV augment = increases HSV replication in cells; maximum fold increase; 0.005% of 220,000 active; HSV replication augmentation in cells, fold increase;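 active = peak rise of 1.5-fold or more in the series; tested in PC3 cells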;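 also: first round at 10 µM; read as green reporter fluorescence; hits show the peak of a series up to 25 µM; 1 = signal of infected wells without compound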
PKD1 inh = PKD1 (human) kinase inhibition | Q15139 | PKD1 kinase fluorescence polarization assay | inhibition, %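 (about 10 µM by stock and volumes)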 | 0.056% of 200,000 active | AID 797;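 active = inhibition of 50% or more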;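 also: controls were vehicle for no effect and a reference inhibitor for full effect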
INS promoter inh cell count = recorded beside INS promoter inh, whose call it bears; normalized cell count, %; measured here: cell count, toxicity; reference of the scale not given here;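 cells exposed to compound for 48 h; stained nuclei by imaging scaled within each plate; lower means fewer cells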
HSV augment primary fold = also measured in HSV augment; calls as there; fold increase; compound at 10 µM; measured here: primary screen fold increase 10 uM; tested in PC3 cells;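 GFP signal in the first replicate; 1 = infected wells without compound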
* = called active by the depositor; i = inactive; · = not tested or not shown.

Preview:
SMILES | GALR2 ag | INS promoter inh | INS promoter inh cell count | RGS16-Gao HTS | HSV augment | HSV augment primary fold | PKD1 inh
Cc1ccc(C(=O)CC2(O)C(=O)N(Cc3ccccc3Cl)c3ccccc32)o1 (configuration not stated) | 0.4 | 0.0 | 94.8 | 103.5 | i | 0.9 | -6.0
CC(=O)N1[C@@H]2CC3C4CC=C5C[C@@H](O)CC[C@]5(C)C4CC[C@]3(C)[C@@]21C(C)=O (some centres not stated) | -0.8 | -24.1 | 87.4 | 72.6 | i | 1.05 | -3.9
CCN(CC)CCOC(=O)C1(c2ccc(OC)c(OC)c2)CCCC1 | -1.0 | 15.2 | 86.3 | 105.9 | i | 1.09 | -5.3

The listing, from the first entry:
SMILES | GALR2 ag | INS promoter inh | INS promoter inh cell count | RGS16-Gao HTS | HSV augment | HSV augment primary fold | PKD1 inh
Cc1ccc(C(=O)CC2(O)C(=O)N(Cc3ccccc3Cl)c3ccccc32)o1 (configuration not stated) | 0.4 | 0.0 | 94.8 | 103.5 | i | 0.9 | -6.0
CC(=O)N1[C@@H]2CC3C4CC=C5C[C@@H](O)CC[C@]5(C)C4CC[C@]3(C)[C@@]21C(C)=O (some centres not stated) | -0.8 | -24.1 | 87.4 | 72.6 | i | 1.05 | -3.9
CCN(CC)CCOC(=O)C1(c2ccc(OC)c(OC)c2)CCCC1 | -1.0 | 15.2 | 86.3 | 105.9 | i | 1.09 | -5.3
CCOC(=O)N1CCN(CC(=O)Nc2ccc(F)cc2F)CC1 | · | 35.7 | 69.8 | 101.3 | i | 0.98 | -0.6
COc1ccc2c(c1)O[C@H](c1ccc3c(c1)OCO3)[C@@H](OC(=O)N[C@H]1CCCc3ccccc31)C2=O | -1.1 | 23.8 | 132.3 | 103.7 | i | 0.67 | -1.4
Cc1ccc2cc(C#N)c(N3CCCN(C(=O)C4CCCO4)CC3)nc2c1C (configuration not stated) | -0.1 | -28.1 | 84.9 | 104.0 | i | 0.79 | -12.8
OCCNCc1cccc(OCc2ccc(Cl)cc2)c1 | · | · | · | 100.6 | i | 0.91 | -2.2
Brc1ccc(CN2C3=NCCCN3c3ccccc32)cc1 | -0.8 | -23.5 | 140.0 | 98.0 | i | 0.81 | -5.8
O=C(CSc1nc2c(c(=O)n1-c1ccc(F)cc1)SCC2)NCC1CCCO1 (configuration not stated) | 1.4 | 3.6 | 165.2 | 97.2 | i | 0.85 | 2.8
CC(OC(=O)c1cccnc1SCc1cc(=O)n2ccccc2n1)c1ccccn1 (configuration not stated) | -1.1 | -23.9 | 101.7 | 97.5 | i | 1.03 | 2.1
COC(=O)C(NC(=O)c1ccc(OC)cc1)(Nc1ncc(S(=O)(=O)c2ccc([N+](=O)[O-])cc2)s1)C(F)(F)F (configuration not stated) | -2.8 | -10.0 | 96.0 | 105.0 | i | 1.03 | -6.2
O=C(NCCc1cn2ccccc2n1)c1ccc(Br)o1 | -3.6 | · | · | 101.8 | i | 0.87 | 5.8
Cc1c(C(=O)NN)nn(-c2ccc(Cl)cc2)c(=O)c1C#N | · | 0.0 | 129.3 | 107.1 | i | 0.94 | -1.2
COC(=O)CCCC1=CC2=CC(=O)C(C)(OC(=O)c3cccs3)C(=O)C2=CN1CCN1CCOCC1 (configuration not stated) | · | · | · | 99.5 | i | 0.88 | ·
NC(=O)c1c(NC(=O)CSc2nc3c(c(C(F)(F)F)n2)CCc2ccccc2-3)sc2c1CCCC2 | -3.0 | 26.9 | 92.2 | 212.2 | i | 1.13 | -7.2
CSc1cccc(NC(=O)C2(S(=O)(=O)c3ccc(C)cc3)CC2)c1 | · | 26.7 | 107.8 | 95.3 | i | 1.08 | 2.8
O=C(Cn1cncn1)N/N=C/c1cccc2ccccc12 | -2.3 | 6.2 | 109.3 | 45.2 | i | 0.96 | -6.7
CCn1c(Sc2nc(C)nc3scc(-c4cccs4)c23)n[nH]c1=O | 0.3 | · | · | · | i | 1.08 | -6.4
O=C(NCC1CCCO1)c1c(O)c2cccc3c2n(c1=O)CC3 (configuration not stated) | -0.5 | -53.9 | 85.6 | 84.1 | i | 1.04 | 10.5
COC(=O)[C@@]1(Cc2ccc(OC)cc2)[C@@H]2[C@@H](CC(=O)[C@H]2CC(=O)C(=O)N(C)C)CN1C(=O)c1ccccc1 | -0.7 | 15.0 | 91.3 | 107.7 | i | 1.23 | -4.4
CCOCCCNC(=O)C(NC(=O)c1ccccn1)c1ccc(C)cc1 (configuration not stated) | -0.5 | 2.7 | 140.0 | 111.3 | i | 1 | 19.3
COc1ccc(-n2nc([N+](=O)[O-])c(=NCCc3ccccc3)n2O)cc1 | -1.3 | -10.3 | 78.8 | 104.5 | i | 0.85 | -11.2
COc1ccccc1N(CC(=O)NC1CCCCC1)S(C)(=O)=O | 0.7 | -57.1 | 66.4 | 115.7 | i | 0.94 | -3.7
Cc1ccc(C=Nc2cc([N+](=O)[O-])ccc2C)s1 | -0.5 | 13.9 | 128.6 | 102.5 | i | 1.06 | -2.8
CC1(C(=O)NNC(=S)NCc2ccco2)CC1(Cl)Cl (configuration not stated) | · | 28.6 | 114.4 | 117.7 | i | 0.87 | -0.1
O=C(Nc1ccc(F)cc1)c1ccccc1NS(=O)(=O)N1CCCC1 | · | · | · | 99.0 | i | 1 | -1.9
CCOC(=O)N1CCC(NC(=O)c2cc3ccccn3n2)CC1 | -0.6 | · | · | 105.4 | · | · | -0.1
CCO[C@H]1OC(C(=O)N2CCN(Cc3ccccc3)CC2)=C[C@@H](C2CCCCC2)[C@@H]1CCCO | · | · | · | 100.4 | i | 0.79 | 0.6
COc1ccc(-c2cn3ccccc3n2)cc1[N+](=O)[O-] | 0.4 | 25.7 | 151.8 | 105.0 | i | 0.93 | 7.9
O=C(Nc1cccc(S(=O)(=O)N2CCOCC2)c1)c1ccc2c(=O)n3c(nc2c1)CCCCC3 | · | -77.8 | 116.2 | 102.5 | i | 0.84 | -0.1
O=C1NC2(CCCC2)C(=O)N1Cc1cc(=O)n2ccsc2n1 | · | · | · | 146.5 | i | 0.96 | ·
Cc1ccc(C(=O)C2(C)C3c4cc(Br)ccc4OC(=O)C32C(=O)c2ccco2)cc1 (configuration not stated) | 0.3 | 14.3 | 80.6 | 112.0 | i | 0.99 | -1.0
Oc1ccc(Nc2nc(Cl)nc(NCc3ccco3)n2)cc1 | 0.0 | 20.0 | 146.1 | 49.8 | i | 0.93 | 11.0
CCOC(=O)c1cc(-c2ccccc2)nc2ccc(C)cc12 | · | · | · | 87.9 | i | 1.12 | ·
N#Cc1ccc(-c2csc(NC(=O)c3cc(-c4cccs4)nc4ccccc34)n2)cc1 | · | · | · | 94.3 | i | 1.16 | ·
CCc1ccc(NC2=NCC(=O)N2Cc2ccc3c(c2)OCO3)cc1 | -0.5 | 9.1 | 81.9 | 102.4 | i | 0.83 | 1.4
NC(=O)COC(=O)CCCc1c[nH]c2ccccc12 | -1.7 | · | · | 100.4 | i | 0.97 | 2.2
CC(Oc1ccccc1)C(=O)N1CCN=C1SCc1ccc(F)cc1 (configuration not stated) | · | · | · | 102.0 | i | 0.88 | ·
Cc1ccc(Nc2nc3ccccc3c(=O)s2)cc1 | · | · | · | 112.5 | i | 1.02 | -1.5
COc1ccc(NC(=O)Cn2nnc(-c3ccccc3N)n2)cc1OC | -0.7 | -19.1 | 80.7 | 103.1 | i | 0.88 | -8.8
Cc1cc(NC(=O)CSc2nnc(-c3ccc(S(=O)(=O)N4CCCC4)cc3)n2C)no1 | 0.2 | · | · | 98.8 | i | 0.92 | 4.2
CCN1CCN(C(c2ccc(OC)cc2)C(O)C(=O)c2c[nH]c3ccccc23)CC1 (configuration not stated) | -2.3 | -6.2 | 185.4 | 101.0 | i | 0.89 | -3.2
COc1cccc(-c2nc3sc4c(c3c(=O)[nH]2)CCCCC4)c1 | -1.2 | -14.3 | 122.5 | 110.2 | i | 0.89 | -8.8
CCOC(=O)Nc1sc2c(c1C#N)CCCC2 | -0.7 | 0.0 | 145.7 | 90.7 | i | 1.01 | -5.4
O=C(O)/C=C/c1ccccc1Oc1ccccc1 | -1.0 | · | · | 184.2 | i | 1.05 | -7.5
Cc1cc(N2CCCCC2)nc(SCc2ccc(C#N)cc2)n1 | -3.3 | · | · | 113.6 | i | 0.94 | -1.8
O=[n+]1c2c(n([O-])c3cc(Br)ccc31)CCCC2 | -1.6 | -17.9 | 92.5 | 99.1 | i | 0.95 | -4.7
OC1(c2ccc(F)cc2)CN(c2ccccc2)C2=[N+]1CCS2 (configuration not stated) | -0.8 | · | · | 106.6 | · | · | -13.6
COc1ccc2c(CSc3nnc(-c4cccnc4)n3-c3ccccc3F)cc(=O)oc2c1 | -0.1 | -3.7 | 115.5 | 100.2 | i | 0.94 | 1.6
O=C(NCc1ccccc1)c1nc2c(nnn2Cc2cccc(Cl)c2)c(=O)[nH]1 | -1.0 | -51.7 | 140.3 | 101.0 | i | 0.9 | -2.8
(next part)
SMILES | GALR2 ag | INS promoter inh | INS promoter inh cell count | RGS16-Gao HTS | HSV augment | HSV augment primary fold | PKD1 inh
CCS(=O)(=O)c1ccc(O)c(NC(=O)COc2ccc(C)cc2)c1 | -1.3 | -6.1 | 110.6 | 101.9 | i | 0.99 | 8.2
COc1ccc(CCNC(=O)CSc2cccc3cccnc23)cc1OC | · | · | · | 99.6 | i | 0.95 | 3.6
CCCNC(=O)NC(C(=O)OC)C12CC3CC(CC(C3)C1)C2 (configuration not stated) | -1.2 | -35.0 | 50.6 | 102.1 | i | 1.03 | -2.5
CC(=O)c1cccc(NC(=O)COC(=O)c2ccc(S(C)(=O)=O)c([N+](=O)[O-])c2)c1 | · | 28.6 | 142.5 | 104.9 | i | 0.77 | -10.8
O=c1[nH]c(CN2CCN(c3ccc([N+](=O)[O-])cc3)CC2)nc2ccsc12 | -2.8 | 40.0 | 83.8 | 99.0 | i | 0.97 | 6.0
Fc1cnc(N2CCOCC2)nc1N1CCc2ccccc21 | -0.9 | 31.2 | 96.1 | 100.6 | i | 0.717 | -11.8
COc1cc(NC(=O)NCc2ccncc2)cc(OC)c1OC | 0.6 | · | · | 104.3 | i | 0.94 | -2.7
COc1cccc(NC(=S)N/N=C2\CC3CCC2(C)C3(C)C)c1 (configuration not stated) | · | · | · | 104.8 | i | 0.98 | 4.7
N#CCCN(CCN1CCCC1)S(=O)(=O)c1ccc(-c2ccc([N+](=O)[O-])cc2)cc1 | · | 27.8 | 131.3 | 99.4 | i | 0.96 | -2.1
Cc1nc(CN(C)Cc2nc(Cc3ccccc3Cl)no2)cs1 | · | · | · | 112.7 | i | 0.94 | 1.3

3 structures already listed, arranged by formula weight, low to high.
SMILES | GALR2 ag | INS promoter inh | INS promoter inh cell count | RGS16-Gao HTS | HSV augment | HSV augment primary fold | PKD1 inh
COc1cccc(NC(=S)N/N=C2\CC3CCC2(C)C3(C)C)c1 (configuration not stated) | · | · | · | 104.8 | i | 0.98 | 4.7
CC(=O)c1cccc(NC(=O)COC(=O)c2ccc(S(C)(=O)=O)c([N+](=O)[O-])c2)c1 | · | 28.6 | 142.5 | 104.9 | i | 0.77 | -10.8
N#CCCN(CCN1CCCC1)S(=O)(=O)c1ccc(-c2ccc([N+](=O)[O-])cc2)cc1 | · | 27.8 | 131.3 | 99.4 | i | 0.96 | -2.1

The results go on.
SMILES | GALR2 ag | INS promoter inh | INS promoter inh cell count | RGS16-Gao HTS | HSV augment | HSV augment primary fold | PKD1 inh
O=C(/C=C/c1ccco1)Nc1ccc(C(=O)N2CCOCC2)cc1 | -1.6 | 9.4 | 127.8 | 79.2 | i | 0.95 | -8.5
Cn1cccc1Cc1nnc(SCC(=O)NCC2CCCO2)n1C (configuration not stated) | · | · | · | 94.1 | i | 1.02 | 1.0
Cc1[nH]nc2c1C(c1ccc(F)cc1)C1=C(CC(C)(C)CC1=O)N2 (configuration not stated) | -1.3 | -425.0 | 77.4 | 100.2 | i | 0.97 | -6.1
CCc1ccc(NC(=S)NC2CC3CCCC(C2)N3Cc2cccs2)cc1 (configuration not stated) | -2.7 | · | · | 94.0 | i | 0.75 | -0.1
CCC(=O)Nc1sc(C(=O)N2CCCCC2)c(C)c1C#N | -0.7 | · | · | 97.6 | i | 1.01 | 0.5
Cc1ccc(S(=O)(=O)/N=C(/c2ccccc2)N2CCOCC2)cc1 | · | · | · | 101.4 | i | 1.1 | 9.9
O=[N+]([O-])c1ccc(-c2nn(-c3ccccc3)cc2/C=N/n2c(-c3ccncc3)n[nH]c2=S)cc1 | · | · | · | 100.0 | i | 0.81 | ·
O=C(CSc1nnnn1C1CCCC1)NCCc1ccccc1 | · | · | · | 101.2 | i | 0.96 | ·
COC(=O)c1cc(OC)c(OC)cc1NC(=O)c1oc2ccccc2c1C | 0.6 | -100.0 | 106.0 | · | · | · | -7.7
OC(CN1c2ccccc2Sc2ccccc21)Cn1nnc2ccccc21 (configuration not stated) | -2.2 | · | · | 104.1 | i | 0.97 | -4.0
CCOC(=O)CCCNC(=O)COC(=O)c1cc2ccccc2cc1O | -2.0 | 21.7 | 95.5 | 102.0 | i | 1.08 | -4.6
